# GLA inh pH 4.5: qHTS Assay for Inhibitors of Human alpha-Galactosidase at pH 4.5; activity change, negative = inhibition, % at 105 µM; 230,000 tested, under 10 active; AID 1467, 2008; Alpha-galactosidase A (Homo sapiens), P06280; purified enzyme, 4-MU-alpha-Gal fluorescence, pH 4.5; inconclusive = small, poorly fitted or top-dose-only inhibition, or a rising curve; inactive = flat fitted curve, though single readings scatter; no compound was filed as active;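 further: 0% = full activity with enzyme and -100% = basal without enzyme; dose as in the result columns while the protocol names 77 µM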
# Rango dissoc inh: qHTS Assay for Inhibitors of RanGTP induced Rango (Ran-regulated importin-beta cargo) - Importin beta complex dissociation | Snurportin-1 (Homo sapiens) + GTP-binding nuclear protein Ran (Homo sapiens) + Importin … | Biochemical FRET Rango-importin beta, RanGTP-induced dissociation | Potency, µM (series often up to 46.1 µM), for inactives: at the top dose activity change, negative = inhibition | 340,000 compounds, 0.071% hits | AID 540253, 2011; active means falling FRET ratio curve, often poorly fitted, with flat reads before Ran was added; inconclusive means other falling curves, or compound fluorescence or quenching; inactive means flat or rising ratio curve;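 further: potency means the concentration at half of the fitted maximal effect; % of control where 0% means no effect; nearly all actives have a fitted effect of over 45% in size; -100% = wells without RanGTP and RCC1; the record marks most hits as doubtful in a second field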
#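 Rango/importin beta premix (0.1/0.25 uM final), PBS + 1 mM DTT + 0.02% Tween-20 + 0.1% BSA; cpd 5 min RT; FRET pre-read; + RanGTP-RCC1 (0.6 uM Ran, 2 mM GTP, 0.2 uM RCC1); 45 min RT; FRET post-read, ex 430, em 486/530 nm.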
# miR-21 FLuc: qHTS Assay for Modulators of miRNAs and/orActivators of miR-21; Potency, µM (titrated, usually from 38.3 µM), for inactives: at the top dose reporter change, positive = more light; HeLa miR-21 FLuc reporter, luciferase, 48 h; AID 2288, 2010; 340,000 tested, under 10 active; active = well fitted rising curve with a large enough effect; inconclusive = small, poorly fitted or top-dose-only effect; inactive = no such curve, though single readings can be large or run the other way;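 further: % of control where 0% means no effect; miR-21 action dims this reporter so a rising signal means less miR-21 action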
#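 Luminescence from a firefly luciferase reporter carrying a miR-21 binding site downstream, stably expressed under a CMV promoter in HeLa cells that make miR-21 endogenously, reports miRNA modulation after 48 h compound exposure up to approximately 40uM final.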
# Rango-impB inh: qHTS Assay for Inhibitors of Rango (Ran-regulated importin-beta cargo) - Importin beta complex formation; Rango CFP/YFP FRET sensor + importin beta, 45 min; 340,000 compounds, 0.031% hits; Potency, µM (highest dose often 92.2 µM), without a hit: at the highest dose inhibition of complex formation; Importin subunit beta-1 (Homo sapiens), Q14974; active = rising FRET ratio curve, often small or poorly fitted; inconclusive = mostly compound fluorescence or quenching in the first reads; inactive = flat curves in all reads;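 further: potency means the concentration at half of the fitted maximal effect; 0% = DMSO wells and 100% = buffer wells lacking importin beta; nearly all actives have a fitted effect of over 15% in size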
# Target sequence (Q14974 whole entry, looked up): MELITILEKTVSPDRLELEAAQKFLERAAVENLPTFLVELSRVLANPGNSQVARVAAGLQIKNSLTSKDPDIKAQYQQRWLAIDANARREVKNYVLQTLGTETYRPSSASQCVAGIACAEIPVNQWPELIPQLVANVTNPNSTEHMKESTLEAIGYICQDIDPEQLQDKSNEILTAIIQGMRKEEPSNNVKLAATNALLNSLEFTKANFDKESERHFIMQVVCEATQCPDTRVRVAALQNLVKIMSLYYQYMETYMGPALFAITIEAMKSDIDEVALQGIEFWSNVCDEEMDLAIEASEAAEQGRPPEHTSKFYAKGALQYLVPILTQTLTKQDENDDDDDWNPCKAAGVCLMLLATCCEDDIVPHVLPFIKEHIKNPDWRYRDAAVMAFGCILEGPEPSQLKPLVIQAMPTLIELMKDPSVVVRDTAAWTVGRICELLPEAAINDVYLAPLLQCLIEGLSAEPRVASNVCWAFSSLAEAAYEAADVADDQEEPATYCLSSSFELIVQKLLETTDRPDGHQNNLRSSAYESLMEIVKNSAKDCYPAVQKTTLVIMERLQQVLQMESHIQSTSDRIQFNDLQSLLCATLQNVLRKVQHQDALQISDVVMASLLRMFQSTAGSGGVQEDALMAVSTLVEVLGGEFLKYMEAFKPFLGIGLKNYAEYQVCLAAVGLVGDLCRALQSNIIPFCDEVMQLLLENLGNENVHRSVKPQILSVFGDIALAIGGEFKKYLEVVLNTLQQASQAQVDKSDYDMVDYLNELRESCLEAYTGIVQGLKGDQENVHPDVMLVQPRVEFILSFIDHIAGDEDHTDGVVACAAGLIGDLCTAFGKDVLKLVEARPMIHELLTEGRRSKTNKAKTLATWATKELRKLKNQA
#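 FRET biosensor (snurportin 1 IBB flanked by EYFP and cerulean), 50 nM, with compound 5 min, then 0.125 microM importin beta in PBS, 1 mM DTT, 0.02% Tween-20, 0.1% BSA. CFP/YFP ratio read after 45 min at room temperature; pre-read flags interference.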
# The depositor's hits bear a star; ? = inconclusive; · = not tested or not shown; & = joins results of further samples; [ ] = remark or other dose. An excerpt; rates above refer to the full screens.
nr	SMILES	GLA inh pH 4.5	Rango dissoc inh	miR-21 FLuc	Rango-impB inh
1	S=C(Nc1ccc(Cl)cc1)NC1CCN(Cc2ccccc2)CC1	1	5%	26%	-6.4%
2	CCc1ccc(C(C(=O)NCc2ccccc2)N(C(=O)c2csnn2)C2CC2)cc1 (configuration not stated)	·	0%	5%	3.1%
3	CCOC(=O)Cn1c(C)nc2ccccc21	-1	-1%	-3%	?
4	Cc1c(C)n(CC(O)CN2C(=O)c3ccccc3S2(=O)=O)c2ccccc12 (configuration not stated)	0	3%	-4%	-0.3%
5	Cc1ccc(/C=N/n2c(-c3ccco3)n[nH]c2=S)cc1	-23	50%	-4%	5.2%
6	CCCCSc1nc2c(c(C(F)(F)F)c1C#N)CCC2	-2	2%	-5%	3.2%
7	Nn1c(SCc2cn3ccsc3n2)nnc1-c1ccncc1	3	10%	1%	2.4%
8	COc1ccc2sc(-c3ccc(SC)cc3)c(C#CC(C)(C)O)c2c1	·	24%	·	-1.1%
9	COc1cccc(C(c2c(N)[nH]c(=S)[nH]c2=O)c2c(N)[nH]c(=S)[nH]c2=O)c1	-6	8%	-1%	-0.6%
10	COc1cc(C(F)(F)F)c(C(=O)N(C)c2ccc(Cl)cc2)cn1	-7	-7%	0%	0.9%
11	CCOc1ccccc1NC(=S)/C(=C(\[O-])c1ccc2c(c1)OCCO2)[n+]1ccc(CC)cc1	-1	-1%	-4%	-2.0%
12	O=C(COc1ccc(Cl)cc1)Nc1ccccc1Cl	·	6%	-51%	-1.1%
13	CC(=O)Nc1cccc(C(=O)/C=C/c2ccco2)c1	-6	-14%	-11%	-2.6%
14	O=C(CC(C(=O)O)c1cccc(Br)c1)c1ccc(Cl)cc1 (configuration not stated)	·	1%	-2%	3.7%
15	c1coc(-c2nnc(SCc3nc4ccccc4[nH]3)o2)c1	-1	1%	-8%	-0.3%
16	C=CCN(C(=O)c1cc(C)cc(C)c1)C1(C(=O)Nc2ccccc2)CCN(C(C)C)CC1	-3	?	-13%	-1.3%
17	COc1cc(/C=C(\C#N)c2ccccn2)ccc1OCc1ccccc1	-2	-10%	-23%	-4.3%
18	CCN(CC)CCNC(=O)/C(=N\O)c1ccccn1	5	-11%	5%	1.8%
19	CCc1ccccc1NC1=CC(=O)CC(C)(C)C1	4	10%	0%	3.2%
20	O=C(Cc1cccs1)Nc1nnc(SCc2ccc(Br)cc2)s1	2	9%	-14%	1.2%
21	Oc1ccc(Nc2nc(Cl)nc(NCc3ccco3)n2)cc1	-2	3%	-10%	-0.3%
22	Cc1ccc(C(=O)C2(C)C3c4cc(Br)ccc4OC(=O)C32C(=O)c2ccco2)cc1 (configuration not stated)	-7	7%	-1%	0.2%
23	CCOC(=O)c1cc(-c2ccccc2)nc2ccc(C)cc12	-3	-2%	0%	-1.9%
24	N#Cc1ccc(-c2csc(NC(=O)c3cc(-c4cccs4)nc4ccccc34)n2)cc1	-13	-13%	-2%	1.4%
25	O=C1NC2(CCCC2)C(=O)N1Cc1cc(=O)n2ccsc2n1	-13	-7%	-5%	5.4%
26	CC(Oc1ccccc1)C(=O)N1CCN=C1SCc1ccc(F)cc1 (configuration not stated)	-4	30%	1%	2.8%
27	COc1ccc(NC(=O)Cn2nnc(-c3ccccc3N)n2)cc1OC	7	-13%	-2%	-2.2%
28	Cc1ccc(Nc2nc3ccccc3c(=O)s2)cc1	-2	23%	-13%	1.3%
29	CCc1ccc(NC2=NCC(=O)N2Cc2ccc3c(c2)OCO3)cc1	2	0%	-6%	-3.0%
30	O=C1C=C(c2ccc(Cl)c(C(F)(F)F)c2)C[C@@H](c2ccc(Cl)cc2)C1	·	-2%	·	-0.5%
31	NC(=O)COC(=O)CCCc1c[nH]c2ccccc12	-5	-5%	1%	0.3%
32	C=CCn1nnnc1SCC(=O)Nc1ccc(OC)cc1	·	-5%	-18%	-0.8%
33	CCN1CCN(C(c2ccc(OC)cc2)C(O)C(=O)c2c[nH]c3ccccc23)CC1 (configuration not stated)	-2	-4%	-5%	0.0%
34	COc1cccc(-c2nc3sc4c(c3c(=O)[nH]2)CCCCC4)c1	13	2%	-27%	-2.4%
35	Cc1cc(NC(=O)CSc2nnc(-c3ccc(S(=O)(=O)N4CCCC4)cc3)n2C)no1	7	-13%	2%	0.0%
36	O=C(CN1CCN(c2ccc(O)cc2)CC1)Nc1ccc(-c2ccccc2)cc1	·	-1%	-3%	1.1%
37	Cc1ccccc1S(=O)(=O)Cc1ccc(C(=O)NCc2ccco2)o1	·	2%	1%	0.0%
38	OC1(c2ccc(F)cc2)CN(c2ccccc2)C2=[N+]1CCS2 (configuration not stated)	-4	2%	-10%	-2.5%
39	O=[n+]1c2c(n([O-])c3cc(Br)ccc31)CCCC2	-1	-7%	-4%	-5.6%
40	COc1ccc2c(CSc3nnc(-c4cccnc4)n3-c3ccccc3F)cc(=O)oc2c1	-1	1%	2%	0.1%
41	O=C(NCc1ccccc1)c1nc2c(nnn2Cc2cccc(Cl)c2)c(=O)[nH]1	?	-13%	-9%	1.5%
42	CCS(=O)(=O)c1ccc(O)c(NC(=O)COc2ccc(C)cc2)c1	1	-19%	-13%	-2.2%
43	CCOC(=O)Nc1sc2c(c1C#N)CCCC2	12	1%	-58%	?
44	O=C(O)/C=C/c1ccccc1Oc1ccccc1	-2	-4%	-2%	0.1%
45	O=C(NCCCn1ccnc1)c1ccc(-c2ccccc2)cc1	·	0%	-19%	-3.4%
46	Cc1cc(N2CCCCC2)nc(SCc2ccc(C#N)cc2)n1	6	1%	-17%	-2.8%
47	COc1ccc(C(=O)NCc2nnc(SCC(=O)Nc3cccc(OC)c3)o2)cc1	·	4%	-3%	1.3%
48	O=C(NCCc1cn2ccccc2n1)c1ccc(Br)o1	9	2%	-4%	-0.3%
49	Cc1c(C(=O)NN)nn(-c2ccc(Cl)cc2)c(=O)c1C#N	-10	10%	5%	-3.3%
50	COC(=O)CCCC1=CC2=CC(=O)C(C)(OC(=O)c3cccs3)C(=O)C2=CN1CCN1CCOCC1 (configuration not stated)	6&-7	?	1%	-6.0%

# Other results:
nr	SMILES	GLA inh pH 4.5	Rango dissoc inh	miR-21 FLuc	Rango-impB inh
51	NC(=O)c1c(NC(=O)CSc2nc3c(c(C(F)(F)F)n2)CCc2ccccc2-3)sc2c1CCCC2	2	17%	-4%	0.0%
52	O=C(Cn1cncn1)N/N=C/c1cccc2ccccc12	7	4%	-6%	2.6%
53	CSc1cccc(NC(=O)C2(S(=O)(=O)c3ccc(C)cc3)CC2)c1	-12	-21%	1%	2.7%
54	O=C(CSc1nc2c(c(=O)n1-c1ccc(F)cc1)SCC2)NCC1CCCO1 (configuration not stated)	-9	7%	-6%	-2.0%
55	CC(OC(=O)c1cccnc1SCc1cc(=O)n2ccccc2n1)c1ccccn1 (configuration not stated)	5	-5%	-33%	-1.0%
56	COC(=O)C(NC(=O)c1ccc(OC)cc1)(Nc1ncc(S(=O)(=O)c2ccc([N+](=O)[O-])cc2)s1)C(F)(F)F (configuration not stated)	-11	-1%	28%	-1.7%
57	CCOCCCNC(=O)C(NC(=O)c1ccccn1)c1ccc(C)cc1 (configuration not stated)	-5	-7%	-7%	2.7%
58	COc1ccc(-n2nc([N+](=O)[O-])c(=NCCc3ccccc3)n2O)cc1	-3	-2%	-46%	0.2%
59	COc1ccccc1N(CC(=O)NC1CCCCC1)S(C)(=O)=O	7	-12%	0%	1.3%
60	Cc1ccc(C=Nc2cc([N+](=O)[O-])ccc2C)s1	0	-12%	2%	6.6%
61	CC1=Nc2cc(C(=O)N3CCCC3)ccc2Sc2ccc(C)cc21	·	11%	-2%	6.6%
62	O=C(NCC1CCCO1)c1c(O)c2cccc3c2n(c1=O)CC3 (configuration not stated)	3	-3%	-3%	0.4%
63	CCn1c(Sc2nc(C)nc3scc(-c4cccs4)c23)n[nH]c1=O	-3	18%	27%	2.6%
64	COC(=O)[C@@]1(Cc2ccc(OC)cc2)[C@@H]2[C@@H](CC(=O)[C@H]2CC(=O)C(=O)N(C)C)CN1C(=O)c1ccccc1	4&-10	-7%	-6%	-1.1%
65	NC1(C#Cc2ccc3oc(=O)c(-n4cc(-c5ccsc5)nn4)cc3c2)CCCCC1	·	?	·	?
66	C=Cn1cc[n+](CC(=O)c2ccc(Cl)cc2)c1	·	1%	0%	0.7%
67	CC1(C(=O)NNC(=S)NCc2ccco2)CC1(Cl)Cl (configuration not stated)	5	4%	1%	2.2%
68	O=C(Nc1ccc(F)cc1)c1ccccc1NS(=O)(=O)N1CCCC1	5	2%	4%	-1.5%
69	COc1ccc(-c2cn3ccccc3n2)cc1[N+](=O)[O-]	14	16%	-77%	1.0%
70	O=C(Nc1cccc(S(=O)(=O)N2CCOCC2)c1)c1ccc2c(=O)n3c(nc2c1)CCCCC3	-1	-7%	29%	3.7%
71	CC(CNC(=O)CCC(=O)N1CCOc2ccc(Cl)cc21)c1ccccc1 (configuration not stated)	·	4%	3%	-0.4%
72	Cc1c(NC(=O)c2cc(-c3ccccc3)nc3ccccc23)c(=O)n(-c2ccccc2)n1C	·	1%	·	-4.5%
73	COc1cc(-c2nc3n(c(=O)c2C#N)CCS3)cc(OC)c1OC	·	?	1%	3.5%
74	CCOC(=O)N1CCC(NC(=O)c2cc3ccccn3n2)CC1	-3	7%	-5%	1.5%
75	CCO[C@H]1OC(C(=O)N2CCN(Cc3ccccc3)CC2)=C[C@@H](C2CCCCC2)[C@@H]1CCCO	-7	-15%	13%	0.1%
76	COc1ccc(C(=O)OCC(=O)N2CCCCCC2)cc1S(=O)(=O)N1CCOCC1	·	18%	·	-5.9%
77	Cc1ccc(S(=O)(=O)/N=C(/c2ccccc2)N2CCOCC2)cc1	4	5%	-1%	?
78	CC(=O)Nc1ccc(NC(=O)c2nccnc2C(=O)O)cn1	·	0%	3%	0.5%
79	CCOC(=O)CN1C(=O)S/C(=C/c2ccc(C)o2)C1=O	·	?	-26%	0.4%
80	Cc1ccc(C(=O)NNC(=O)CSc2nnc3ccccn23)cc1	·	7%	·	0.4%
81	CCC(=O)Nc1sc(C(=O)N2CCCCC2)c(C)c1C#N	-7	-3%	-7%	0.0%
82	O=C(CSc1nnnn1C1CCCC1)NCCc1ccccc1	0	0%	-26%	0.3%
83	CCOC(=O)CCCNC(=O)COC(=O)c1cc2ccccc2cc1O	-8	6%	-2%	3.4%
84	OC(CN1c2ccccc2Sc2ccccc21)Cn1nnc2ccccc21 (configuration not stated)	-10	-4%	2%	1.9%
85	CN1N=C(C(=O)N2CCCC(C(=O)c3cccc(C(F)(F)F)c3)C2)CCC1=O (configuration not stated)	-4	-9%	-4%	1.5%
86	CCCCNS(=O)(=O)c1ccc(S(=O)(=O)NCc2ccncc2)cc1	-10	-13%	12%	-2.9%
87	O=[N+]([O-])c1ccc(-c2nn(-c3ccccc3)cc2/C=N/n2c(-c3ccncc3)n[nH]c2=S)cc1	-1	-16%	-2%	4.6%
88	O=[N+]([O-])c1ccccc1N(S(=O)(=O)c1ccccc1)S(=O)(=O)c1ccccc1	·	-1%	·	-0.3%
89	CCC(C)(NC(=O)c1ccccn1)C(=O)NC1CCCC1 (configuration not stated)	1	1%	0%	-1.6%
90	Cc1noc(C)c1CSCC(=O)Nc1nc2ccc(F)cc2s1	·	1%	·	?
91	Cc1ccc(C(=O)NCC(=O)OCC(=O)NCCNC(=O)COC(=O)CNC(=O)c2ccc(C)cc2)cc1	·	3%	·	-0.9%
92	COc1ccc(CN(Cc2ccc(C(=O)O)cc2)C(=S)Nc2cc(C)cc(C)c2)cc1OC	1[21.1 µM]	-5%	-5%	-0.1%

# Source: PubChem
